Compound activity deposited in PubChem by National Center for Advancing Translational Sciences (NCATS).
D2 agonist: Beta-Arrestin HTS for Positive Allosteric Modulators of the Human D2 Dopamine Receptor: Agonists. D(2) dopamine receptor (Homo sapiens), P14416. DiscoveRx PathHunter D2 beta-arrestin, luminescence, 90 min; 100% = 57 uM dopamine signal. activation, % (no concentration beside the values). actives 0.084% (n = 360,000). AID 624465, 2012; in the data active = activation above about 40%; inconclusive = about 15% to 40%; inactive = below about 15%; note: compound concentration not given in the record; the text of the record calls up to 30% inactive
Target sequence (P14416 whole entry, looked up): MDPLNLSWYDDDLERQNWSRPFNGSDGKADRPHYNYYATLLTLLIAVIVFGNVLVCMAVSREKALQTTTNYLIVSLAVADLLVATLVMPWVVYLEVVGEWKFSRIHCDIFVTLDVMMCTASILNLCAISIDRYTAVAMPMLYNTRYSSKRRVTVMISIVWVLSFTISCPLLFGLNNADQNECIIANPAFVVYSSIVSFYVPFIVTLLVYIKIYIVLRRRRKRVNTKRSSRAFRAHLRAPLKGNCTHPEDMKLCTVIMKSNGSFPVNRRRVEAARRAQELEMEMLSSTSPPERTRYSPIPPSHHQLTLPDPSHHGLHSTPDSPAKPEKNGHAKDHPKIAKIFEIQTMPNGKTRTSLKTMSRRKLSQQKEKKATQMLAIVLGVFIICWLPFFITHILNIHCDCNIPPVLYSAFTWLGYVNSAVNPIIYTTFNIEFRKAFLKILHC
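DiscoveRx PathHunter D2 beta-arrestin cells (2,100/well) attached overnight, then compound-stimulated 90 min at 37 C in HBSS/10 mM HEPES/0.1% Tween-20 buffer; beta-galactosidase complementation read by luminescence after 1 h at ambient temperature. Dopamine 57 uM final (EC100) as control.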
TRPML1 ag: qHTS for Agonists of the Human Mucolipin Transient Receptor Potential 1 (TRPML1); TRPML1-expressing cells, Ca2+ dye fluorescence, FDSS; host cell line not named in the record; reference of the full effect not given here; activation, % (no concentration beside the values); actives 0.12% (n = 410,000); in the data active = activation above about 50%; inconclusive = about 30% to 50%; inactive = below about 30%; note: 0% is about no effect; the text of the record puts the active cut at 80%
Target sequence (Q9GZU1 whole entry, looked up): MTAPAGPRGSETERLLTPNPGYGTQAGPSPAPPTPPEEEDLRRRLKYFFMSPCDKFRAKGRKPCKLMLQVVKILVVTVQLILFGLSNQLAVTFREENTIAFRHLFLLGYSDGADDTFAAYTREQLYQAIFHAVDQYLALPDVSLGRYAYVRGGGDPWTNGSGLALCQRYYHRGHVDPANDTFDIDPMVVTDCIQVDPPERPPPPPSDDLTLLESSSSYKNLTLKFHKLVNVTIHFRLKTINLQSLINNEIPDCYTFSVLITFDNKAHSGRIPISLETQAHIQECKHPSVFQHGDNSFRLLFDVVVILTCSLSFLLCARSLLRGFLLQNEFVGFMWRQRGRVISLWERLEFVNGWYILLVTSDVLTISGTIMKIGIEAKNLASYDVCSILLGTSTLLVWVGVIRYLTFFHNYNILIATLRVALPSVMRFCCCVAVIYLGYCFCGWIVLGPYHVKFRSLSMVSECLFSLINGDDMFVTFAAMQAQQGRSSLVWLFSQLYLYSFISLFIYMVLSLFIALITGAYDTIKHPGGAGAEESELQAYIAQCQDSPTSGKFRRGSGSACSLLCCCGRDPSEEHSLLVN
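Kinetic FDSS Ca2+ read in Tet-induced TRPML1-DL cells (ABD Ca8 dye plus quencher, 45-90 min RT loading): baseline, then compound, then 110 s agonist window; EC80 agonist 54-4 at 4uM final added afterwards for a 110 s antagonist window.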
D2 PAM: Beta-Arrestin HTS for Positive Allosteric Modulators of the Human D2 Dopamine Receptor: Potentiators. DiscoveRx D2 beta-arrestin cells, luminescence, 90 min; 100% = 57 uM dopamine signal. potentiation, % (test concentration not listed). D(2) dopamine receptor (Homo sapiens), P14416. actives 0.23% (n = 360,000). AID 624464, 2012; active = potentiation of 50% or more; inconclusive = 30% to 50%; inactive = 30% or less;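 note: compound concentration not given in the record; tested on top of an EC20 dose of dopamine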
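D2 cells co-treated with compound plus 50 nM dopamine (EC20) for 90 min at 37 deg C to detect potentiation. Beta-arrestin recruitment was read as enzyme-fragment luminescence after 1 h at ambient temperature. Full response was set by 57 uM dopamine.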
CtBP-E1A blk: qHTS Assay for Inhibitors of the CtBP/E1A Interaction | AlphaScreen GST-E1A/His-CtBP binding, 1536-well; hits give low values; control for the full effect not named in the record | AID 651724, 2012 | CtBP / adenovirus E1A interaction (AlphaScreen) | actives 0.49% (n = 340,000) | activity change, % (test concentration not listed); in the data active means activity change below about -65%; inconclusive means about -30% to -65%; inactive means above about -30%; note: % is set by controls: 0 for no effect and ±100 for the full control effect; compound concentration not given in the record
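Protein mix (5X: 125 nM each GST-E1A, His-CtBP) was incubated with pinned compound 2 h at 37 deg C in dark, in 50 mM Tris pH 8.0 buffer with 300 mM NaCl. Glutathione donor and nickel acceptor beads followed; AlphaScreen signal read after 1 h.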
PINK1 expr mod: A Quantitative High throughput Screen to Identify Chemical Modulators of PINK1 Expression | PINK1 immunofluorescence, high-content cytometry, 24 h | Potency, µM (series often up to 76.6 µM), inactives show at the highest dose activation (PINK1 increase), usual class: activators | actives 0.2% (n = 410,000); active = well fitted activation curve with a large enough effect; inconclusive = small, poorly fitted or top-dose-only effect; inactive = flat fitted curve, though single readings scatter; cell line not stated here;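 note: potency is the fitted concentration of half-maximal effect; % of control where 0% means no effect; nearly all actives have a fitted effect of over 65% in size; a mitochondrial uncoupler was the plate control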
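Decision-based qHTS: stable cells, 24 h exposure to five compound concentrations, CCCP as control. Fixed cells stained for PINK1 plus nuclear, mitochondrial and cell markers, cytometer read.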
Six1-Eya2 inh: qHTS Assay for Inhibitors of the Six1/Eya2 Interaction. actives 0.56% (n = 360,000). Homeobox protein SIX1 (Homo sapiens) + Protein phosphatase EYA2 (Homo sapiens), …. AlphaScreen GST-Six1/His-Eya2 binding, biochemical; hits give low values; control for the full effect not named in the record. activity change, % (concentration not given with the values); in the data active = activity change below about -65%; inconclusive = about -30% to -65%; inactive = above about -30%; note: % is set by controls: 0 for no effect and ±100 for the full control effect
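AlphaScreen with GST-Six1 and His-Eya2 (5X mix: 250 nM and 500 nM), glutathione donor and nickel acceptor beads; buffer 50 mM Tris pH 8.0, 300 mM NaCl, 1 mM TCEP; 1 h at 37 C in the dark.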
Numbers without * were called inactive; ? = inconclusive; / = no result given; [ ] = another dose, or the depositor's remark.

[1] Cc1ccc(/C=N/NC(=O)c2cccc(NC(=O)c3ccccc3C)c2)o1
[2] Cn1c(=O)c2c(ncn2CC(O)CNc2ccc(Br)cc2)n(C)c1=O (configuration not stated)
[3] Cc1cc(=O)oc2cc(NC(=O)c3ccc(OC(F)F)cc3)ccc12
[4] CCN(CC(=O)NCc1ccc(Cl)cc1)C(=O)c1cc2ccccc2o1
[5] O=C(/C(=C\c1ccccc1)c1nc2ccccc2[nH]1)c1ccc(Cl)cc1
[6] O=C(Nc1ccc(C(=O)N2CCN(c3ccccn3)CC2)cc1)c1ccc(Br)o1
[7] O=C(Nc1cccc(O)c1)c1ccc(S(=O)(=O)N2CCCCCC2)cc1
[8] CCOC(=O)C1=CN(Cc2cccc(F)c2)S(=O)(=O)N(CC)C1c1ccc(F)c(Cl)c1 (configuration not stated)

assay / entry	1	2	3	4	5	6	7	8
D2 agonist	1.5	-3.1	-1.5	-1.6	-4.5	2.6	-1.1	-0.1
TRPML1 ag	1.5	-0.2	0.1	-0.6	0.6	-1.1	0.3	0.1
D2 PAM	-4.4	-4.5	-5.5	4.6	-35.2	-2.9	-16.9	-3.7
CtBP-E1A blk	-3.8	1.5	4.7	22.6	13.0	4.7	-11.3	7.5
PINK1 expr mod	3.4%	0.4%	10.7%	4.6%	-3.0%	1.5%	0.2%	-1.3%
Six1-Eya2 inh	-11.8	1.8	-3.1	5.8	11.3	-4.6	-11.8	8.3

Entries shown so far that contain bromine (two):
[2] Cn1c(=O)c2c(ncn2CC(O)CNc2ccc(Br)cc2)n(C)c1=O (configuration not stated)
[6] O=C(Nc1ccc(C(=O)N2CCN(c3ccccn3)CC2)cc1)c1ccc(Br)o1

assay / entry	2	6
D2 agonist	-3.1	2.6
TRPML1 ag	-0.2	-1.1
D2 PAM	-4.5	-2.9
CtBP-E1A blk	1.5	4.7
PINK1 expr mod	0.4%	1.5%
Six1-Eya2 inh	1.8	-4.6

Next section.
[9] CCOc1cc(/C=N/NC(=O)c2cccnc2)ccc1OC(=O)c1ccco1
[10] CCCCOP(=O)(c1ccc(N(C)C)cc1)C(O)c1ccccc1F (configuration not stated)
[11] COC(=O)c1ccc(Cn2nc(C)c(Br)c2C)cc1
[12] Cc1ccc(S(=O)(=O)N2CCCC(C(=O)NCC3COCCO3)C2)cc1 (configuration not stated)
[13] O=C(Nc1cccc(-c2cc3ccccc3oc2=O)c1)c1ccc(Br)o1
[14] COCCCNC(=O)CN(C1CCCCC1)S(=O)(=O)c1ccc(C)cc1
[15] CC(C)(C)c1ccc(C(=O)N2CCC(C(=O)NC3CC3)CC2)cc1
[16] Cc1cccc(CCN=c2c([N+](=O)[O-])nn(-c3ccccc3)n2O)c1

assay / entry	9	10	11	12	13	14	15	16
D2 agonist	-2.8	-2.7	0.9	-3.5	0.1	-3.8	-3.5	13.5
TRPML1 ag	0.5	-0.4	-0.3	-0.2	-0.3	0.0	-0.2	1.9
D2 PAM	-16.2	-10.6	-13.9	-6.0	-25.4	0.8	-5.8	5.7
CtBP-E1A blk	-8.9	-9.7	6.9	3.7	-11.3	7.0	3.8	?
PINK1 expr mod	0.9%	-1.8%	1.0%	2.1%	-0.8%	?	-1.6%	1.1%
Six1-Eya2 inh	2.3	-0.2	-0.6	3.9	-3.7	1.6	14.7	?

[17] CC1CCN(C(=O)c2ccc3ccccc3c2)CC1
[18] Cc1c(OC(C)C(=O)NCc2ccccn2)ccc2c3c(c(=O)oc12)CCCC3 (configuration not stated)
[19] Cc1csc(NC(=O)CN(C)S(=O)(=O)c2cccc3cccnc23)n1
[20] CC[n+]1c(/C=C/c2cc([N+](=O)[O-])ccc2O)ccc2ccccc21
[21] Cc1cccc(NC(=O)COC(=O)CN2C(=O)C3CCCCC3C2=O)c1C (configuration not stated)
[22] C/C(N)=C(/C#N)C(=O)CSc1nc(-c2ccccc2)c(-c2ccccc2)o1
[23] Cc1ccc2c(c1)C(c1ccccc1)N(C(=O)c1cccc([N+](=O)[O-])c1)CC(=O)N2 (configuration not stated)
[24] CCC(C)N1CCN(C(=O)c2cccs2)CC1 (configuration not stated)

assay / entry	17	18	19	20	21	22	23	24
D2 agonist	-6.9	3.7	-3.0	-0.5	-2.7	-2.2	-2.3	2.0
TRPML1 ag	-0.4	0.1	-0.1	-0.7	-0.2	0.6	0.7	-0.1
D2 PAM	1.8	12.0	-9.9	-1.0	-9.6	-8.5	-2.3	-11.3
CtBP-E1A blk	0.4	-12.5	-1.6	-18.7	3.5	-10.0	-0.9	0.0
PINK1 expr mod	-0.3%	4.0%	1.7%	4.9%	-1.2%	5.4%	2.2%	-1.0%
Six1-Eya2 inh	1.4	-5.0	1.9	-14.0	1.9	-4.6	0.4	-3.6

[25] O=C(Cc1ccc(Cl)cc1)Nc1ccc(N2CCN(C(=O)c3ccco3)CC2)c(Cl)c1
[26] c1csc(-c2cnc3n2CCCC3)c1
[27] CCOc1cc(C2NC(=S)NC(C)=C2C(=O)Nc2ccccc2)ccc1O (configuration not stated)
[28] O=C1CN(S(=O)(=O)c2ccc(Cl)cc2C(F)(F)F)CCN1
[29] COc1ccc([N+](=O)[O-])cc1NC(=O)CSCc1ccccc1
[30] Cc1ccc(-c2nnn(CC(=O)NC(=O)NC3CCCCC3)n2)cc1
[31] O=C(NC1CCCC1)C(c1ccc(Cl)cc1)N1CCN(C2CCCCC2)CC1 (configuration not stated)
[32] COc1ccc(CC(C#N)(CO)c2nc3ccccc3[nH]2)cc1 (configuration not stated)

assay / entry	25	26	27	28	29	30	31	32
D2 agonist	-1.3	-0.8	-0.9	-4.8	1.9	-0.7	-6.3	-1.4
TRPML1 ag	0.7	-0.2	0.1	-1.0	-0.1	2.9	/	0.5
D2 PAM	-0.5	-8.2	0.2	0.0	-14.4	-0.8	-9.4	-17.9
CtBP-E1A blk	-1.4	-1.5	2.8	-5.8	0.6	0.6	3.7	2.9
PINK1 expr mod	0.3%	0.0%	-1.0%	2.0%	-0.4%	1.5%	-0.1%	7.2%
Six1-Eya2 inh	-4.4	-4.0	3.6	7.7	-4.4	-1.6	0.8	7.7

[33] Cc1ccc(C(=O)NNC(=S)NC(=O)c2ccc(Cl)cc2Cl)cc1
[34] CCN(CC)S(=O)(=O)c1ccc(C(=O)N(c2ccccc2)C2C=CS(=O)(=O)C2)cc1 (configuration not stated)
[35] CC(C)C[C@H](NC(=O)c1ccc(OC2CCN(C(=O)C3CC3)CC2)cc1)C(N)=O
[36] COc1ccc(CN2C(=O)CCC2(C)c2nnnn2Cc2ccccc2)cc1 (configuration not stated)
[37] COc1cc(C(=O)NCC(=O)N/N=C/c2ccc(-c3ccc([N+](=O)[O-])cc3)o2)cc(OC)c1OC
[38] CC(C)(C)CC(C)(C)c1ccc(OCCOCC[N+](C)(C)Cc2ccccc2)cc1
[39] CCCc1nc2c(C)cc(Br)cn2c1Cc1ccsc1
[40] COc1ccc2cc(C(=O)N3CCN(C)CC3)[nH]c2c1

assay / entry	33	34	35	36	37	38	39	40
D2 agonist	-1.7	-2.2	-0.5	/	4.8	/	-0.5	-6.0
TRPML1 ag	72.4*	0.9	0.5	0.7	-0.6	7.6	-0.3	/
D2 PAM	0.8	-2.1	4.0	/	3.8	/	-3.5	-17.5
CtBP-E1A blk	7.4	-8.2	-4.1	-22.0	-4.5	-2.0	1.2	-15.8
PINK1 expr mod	/	-1.5%	2.0%	0.4%	2.4%	-0.3%	1.7%	1.1%
Six1-Eya2 inh	-5.3	9.8	7.5	6.4	-9.5	-4.0	-7.3	10.7

The final 2 compounds of the part before lead into the next.
[39] CCCc1nc2c(C)cc(Br)cn2c1Cc1ccsc1
[40] COc1ccc2cc(C(=O)N3CCN(C)CC3)[nH]c2c1
[41] CS(=O)(=O)Nc1cccc(-c2cnc3ccccc3n2)c1
[42] Cc1c(O)ccc2c(CN3CCOCC3)cc(=O)oc12
[43] CCOc1ccc(NC(=O)CSc2nnc(COc3c(C)cccc3C)o2)cc1
[44] CC/C(=N/Nc1ccccc1Cl)c1cnnc(-c2ccccc2)n1
[45] CC(=O)c1ccc(S(=O)(=O)N2CCN(C(=O)c3ccc(-n4nc(C)c(Cl)c4C)cc3)CC2)cc1
[46] Cc1ccc(S(=O)(=O)NC(=O)Nc2c(C)n(C)n(-c3ccccc3)c2=O)cc1
[47] CCCOc1ccccc1/C=C(\C#N)C(=O)Nc1cccc(C)n1
[48] CCCCN1C(=O)C(CC(=O)NCc2cccc3ccccc23)CC(C(=O)N(CC)CC)=C1C (configuration not stated)
[49] CSCC[C@H](NS(=O)(=O)c1ccc(C)cc1)C(=O)N1CCC(C(=O)N[C@@H](Cc2ccc(O)cc2)C(=O)O)CC1
[50] CCOC(=O)c1ccc(NC(=O)N2CCN(c3cccc(OC)c3)CC2)cc1
[51] CCc1cc(=O)oc2cc(C)cc(OC(C)C(=O)O)c12 (configuration not stated)

assay / entry	39	40	41	42	43	44	45	46	47	48	49	50	51
D2 agonist	-0.5	-6.0	-2.3	-3.0	2.5	-0.9	2.6	-1.0	-13.1	-10.3	-4.3	0.2	-5.4
TRPML1 ag	-0.3	/	1.2	-0.1	0.6	-0.4	-0.5	-0.4	0.7	-0.4	/	-0.5	-0.7
D2 PAM	-3.5	-17.5	-0.3	1.9	-0.3	-7.9	-6.3	-12.1	-7.4	0.3	-24.4	-6.9	-14.9
CtBP-E1A blk	1.2	-15.8	-11.8	1.4	4.8	-10.8	/	0.1	6.7	-2.2	-22.4	-0.7	2.5
PINK1 expr mod	1.7%	1.1%	0.1%	-0.2%	14.3%	10.5%	1.6%	10.3%[38.3 µM]	2.7%	1.4%	-0.3%	6.9%	?
Six1-Eya2 inh	-7.3	10.7	-6.1	5.0	-1.4	-6.3	3.4	0.1	10.4	-5.6	6.6	-21.3	0.0
